Tg IFNy HTS – T. gondii growth inhibition with IFN-gamma, primary screen, cell-based; activity change, negative = inhibition, %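 (about 20 µM by stock and volumes)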; 69,000 tested, 3.8% active; Toxoplasma gondii growth in IFN-gamma-treated host cells; stronger effect = lower value; reference of the scale not given here; AID 1259416, 2018;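 active means below -70%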;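 further: host cells are HeLa cells infected with Toxoplasma gondii; parasite growth read as luciferase light; one replicate is shown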
* = called active by the depositor; i = inactive; & = joins results of further samples. A portion of the library (hit frequency here may not be typical).

Compound | Tg IFNy HTS
CCN1C(=O)N(Cc2cccc(OC)c2)C(=O)C12CCN(CC(c1ccccc1)c1ccccc1)CC2 | 9
O=C(Cc1ccccn1)N1CC2(C1)[C@@H](c1ccccc1)[C@@H](CO)N2C(=O)c1ccncc1 | 2
COc1ncc(-c2ccc(-c3ccn[nH]3)cc2)c(OC)n1 | 80
CCNC(=O)c1ccc(N2CCN(Cc3ccc4c(c3)OCCO4)CC2)nc1 | -3
CC(C)OC(=O)[C@H](C)N[P@@](=O)(OC[C@H]1O[C@@H](n2ccc(=O)[nH]c2=O)[C@](C)(F)[C@@H]1O)Oc1ccccc1 | 44&14
O=c1cc(-c2ccccc2)c2cc(Cl)c(O)cc2o1 | -1
COc1ccc2c3c([nH]c2c1)[C@@H](CO)NCC31CCN(C(=O)c2ccccc2)CC1 | 187
O=C(CC(SC(=O)c1ccccc1)c1ccc(Cl)cc1)c1ccccc1 (stereo not drawn) | 50

(list continues)
Compound | Tg IFNy HTS
C[C@H](CO)N1C[C@H](C)[C@H](CN(C)S(=O)(=O)c2cccc(C#N)c2)OCc2cn(nn2)CCCC1=O | 14
CN1C(=O)CCc2cc(NC(=O)Cc3ccsc3)ccc21 | 242
c1ccc(Cn2ncc3c(Nc4ccccc4)ncnc32)cc1 | 28
COc1ncccc1C(=O)N(Cc1cnn(C)c1)C1CC1 | -2
COCCC1COC2(CCN(Cc3nccn3C)CC2)C1 (stereo not drawn) | 24
O=C(NC(Cc1ccccc1)c1ccc2c(c1)OCCO2)c1cc2c([nH]c1=O)CCC2 (stereo not drawn) | -38
COc1cccc2c1OCC(CN1CCCC1c1c(C)noc1C)=C2 (stereo not drawn) | -1
CC1(C)CC(CC(=O)O)(c2ccc(Cl)cc2)CCO1 (stereo not drawn) | 12

Next structures
Compound | Tg IFNy HTS
O=S1(=O)c2cccc3cccc(c23)N1Cc1cc2c(cc1Cl)OCO2 | -20
CC(C)=CCC/C(C)=C/CC/C(C)=C/CC/C(C)=C/CC1=C(C)C(=O)c2ccccc2C1=O | 20
CC(=O)N1CC2(CCN(C(=O)c3cccn3C)CC2)CC1C(=O)O (stereo not drawn) | 0
Cc1ccc(-c2coc(-c3ccc(NC(=O)Nc4cccc(F)c4)cc3)n2)c(C)c1 | -28
CC(C)(C)C(=O)Nc1ccc(-c2cc3cc(Cl)ccc3o2)cc1 | 137
Cc1cc(C(=O)NCc2ccco2)c(C)o1 | -25
COc1ccc(-c2nc(CCNC(=O)c3cccs3)cs2)cc1OC | i
COc1ccc(-c2nc3n(c2NC(C)(C)C)CCN(C(=O)C(C)C)C3)cc1OC | 7

Further records.
Compound | Tg IFNy HTS
C[C@H]1CN([C@@H](C)CO)C(=O)CCCn2nncc2CO[C@@H]1CN(C)S(=O)(=O)c1ccc(Oc2ccccc2)nc1 | 45
O=C(c1cccc(F)c1)N1CCc2c([nH]c3ccccc23)C1c1ccccc1 (stereo not drawn) | -46
CN(C)c1cc(OC2CCN(C(=O)c3c[nH]c4ccccc34)C2)ncn1 (stereo not drawn) | -84*
COc1cccc(C(=O)N2CCC3(CC2)C(=O)N(C)CCN3Cc2csc(C)n2)c1 | 23
COc1ccccc1CNC(=O)c1cncc(NS(=O)(=O)c2ccc(Cl)cc2)c1 | 5
CCOC(=O)[C@@]12CCCN(Cc3ccccn3)C[C@@H]1CN(C(C)C)C2 | 17
CCc1nc(CN2CCC(CNC(=O)C3CCCCC3)C2)c(C)[nH]1 (stereo not drawn) | 8
C=CCn1c(=O)c(C(=O)NCc2ccc(C)o2)c(O)c2ccccc21 | -15

More entries follow:
Compound | Tg IFNy HTS
CC(=O)Nc1ccc(C)cc1S(=O)(=O)N1CCC2(CC1)Nc1ccccc1-n1cccc12 | -57
COc1ccc(-n2c(=S)[nH]c(=O)c3cccnc32)cc1 | -28
COc1ccc(C(=O)c2cn(CC(=O)Nc3nc4c(s3)CCCC4)c3cnccc23)cc1 | 7
Cn1c(=O)c(-c2nc(C(C)(C)C)cs2)cn(-c2ccccc2)c1=O | -57
c1coc(C2Nc3cccc4cccc(c34)N2)c1 | 13
COc1ccc(CN2CCC3(CC(Nc4cnccn4)CO3)C2)cc1 (stereo not drawn) | 1
COc1ccc(CN2CCCCC2C(=O)Nc2ccc(OC)c(OCC(C)C)c2)cc1OC (stereo not drawn) | 9
COCCN1CCN(c2ccc3ccc(C(=O)NCc4cccs4)cn23)CC1 | 1

Carrying on:
Compound | Tg IFNy HTS
CC(C)NC(=O)N[C@H]1CC[C@H](CC(=O)NCCCN(C)C)O[C@H]1CO | 66
O=C1C(Cc2ccccc2)N=C2c3ccccc3N=C(SCc3cccc(Cl)c3)N12 (stereo not drawn) | 21
C=CCN1C(=O)C2(c3ccccc31)c1[nH]c3ccccc3c1CCN2C(=O)C(C)C (stereo not drawn) | 337
CCCN(Cc1ccc(OC)cc1)C(=O)c1sc(C)nc1CC | -3
CC1=C(C(=O)NCCCOC(C)C)C2(CCN(S(C)(=O)=O)CC2)OC1=O | 16
COC(=O)C(Cc1cccc(C)n1)(c1ccccc1)c1ccccc1 | -19
CCn1nc(C)c(NC(=O)CN2CCCOc3c(cccc3OC)C2)c1C | 3
COc1cccc(-c2nc(-c3noc4ccc(C(=O)N5CCCN(C)CC5)cc34)co2)c1 | 27

Entries shown so far that contain a Cl atom:
Compound | Tg IFNy HTS
O=c1cc(-c2ccccc2)c2cc(Cl)c(O)cc2o1 | -1
O=C(CC(SC(=O)c1ccccc1)c1ccc(Cl)cc1)c1ccccc1 (stereo not drawn) | 50
CC1(C)CC(CC(=O)O)(c2ccc(Cl)cc2)CCO1 (stereo not drawn) | 12
O=S1(=O)c2cccc3cccc(c23)N1Cc1cc2c(cc1Cl)OCO2 | -20
CC(C)(C)C(=O)Nc1ccc(-c2cc3cc(Cl)ccc3o2)cc1 | 137
COc1ccccc1CNC(=O)c1cncc(NS(=O)(=O)c2ccc(Cl)cc2)c1 | 5
O=C1C(Cc2ccccc2)N=C2c3ccccc3N=C(SCc3cccc(Cl)c3)N12 (stereo not drawn) | 21

Continuation.
Compound | Tg IFNy HTS
COc1ccc(Cl)cc1NC(=O)CN1C(=O)CCc2cc(S(=O)(=O)N3CCCCC3)ccc21 | -10
Cc1noc(C)c1NC(=O)N(C)C[C@H]1Oc2cc(C#CCN(C)C)ccc2S(=O)(=O)N([C@@H](C)CO)C[C@@H]1C | 30
O=C(CNS(=O)(=O)c1cccs1)N1C[C@@H]2C3CCC(CC3)[C@@H]2C1 | 136
COc1ccccc1CCC(=O)N1CC[C@@H](N)[C@@H](OC)C1 | 3
CCc1nc2ccccc2n1CCC(=O)N1CCN2C(=O)CNC(=O)C2C1 (stereo not drawn) | 52
Cc1nc(CCNc2ccc(-c3nccn3C)nn2)nc2c1CCCC2 | 107
CC(C)c1ccc(C(=O)N2CCC3(CCCN(C)C3=O)C2)c(=O)n1C (stereo not drawn) | -1
CCN(C)C(=O)c1ncn2c(C3CCN(Cc4cccnc4)CC3)ccnc12 | 73

Later entries.
Compound | Tg IFNy HTS
CCC1=NOC(Cn2cnc(-c3ccccc3)c2-c2ccc(F)cc2OC)C1 (stereo not drawn) | 22
CCOCc1nnc(NC(=O)c2[nH]c3c(Cl)cccc3c2C)s1 | 29
O=C(c1ccc(Cl)c(Cl)c1)N1CCCC1 | -31
COc1ccccc1-c1nc(C)c(-c2ccc(SCc3ccc(C(F)(F)F)cc3)nn2)s1 | -43
COc1cccc(-n2c(=O)c(C(=O)Nc3ccc(Cl)cc3)c(O)c3cccnc32)c1 | 266
CCCCN(Cc1ccc(C(=O)NO)cc1)C(=O)Nc1ccccc1 | -85*
CCS(=O)(=O)N1CCC(O)(c2ccc(C)cn2)CC1 | -2
Cc1nc(-c2cc(C(=O)Cc3cccnc3)c3ccccn23)cn1C | 0

Continued.
Compound | Tg IFNy HTS
CO[C@@H]1CCN(S(=O)(=O)c2cccs2)[C@H]1Cc1ccccc1 | -67
CCCC(=O)N1CC2(CN(C(=O)C3CC3)C2)c2c(n(C)c3cc(OC)ccc23)[C@@H]1CO | -29
COCCNC(=O)c1ccc2c(c1)N(C)C(CC(=O)Nc1cnccc1C)CO2 (stereo not drawn) | 0
Cc1cc(C)n(-c2ccccc2)c2nn(-c3ccccc3)c(=O)c1-2 | -3
COCC#Cc1ccc([C@H]2[C@@H](CO)N3C(=O)CN(C(=O)C4CCCCC4)C[C@H]23)cc1 | 15
CCC(NC(=O)CC(=O)Nc1ccc(C)c(Cl)c1)c1nc(C)no1 (stereo not drawn) | -5
CN1CCN(C(=O)C[C@H]2CC[C@H]3[C@@H](COC[C@@H](O)CN3Cc3cccc(-c4ccncc4)c3)O2)CC1 | 11
CCOCc1nnc2n1CCN(Cc1cnn(C)c1)C2 | -13

The list goes on; it opens with the four that closed the last part.
Compound | Tg IFNy HTS
COCC#Cc1ccc([C@H]2[C@@H](CO)N3C(=O)CN(C(=O)C4CCCCC4)C[C@H]23)cc1 | 15
CCC(NC(=O)CC(=O)Nc1ccc(C)c(Cl)c1)c1nc(C)no1 (stereo not drawn) | -5
CN1CCN(C(=O)C[C@H]2CC[C@H]3[C@@H](COC[C@@H](O)CN3Cc3cccc(-c4ccncc4)c3)O2)CC1 | 11
CCOCc1nnc2n1CCN(Cc1cnn(C)c1)C2 | -13
Cc1nc(CCN)cc(N2CCCC2c2nonc2C)n1 (stereo not drawn) | -51
CCC(CC)C(=O)N1CCC(C(=O)NCCc2csc(-c3ccccc3)n2)CC1 | -17
c1cc(CC2CCCNC2)c2cccnc2c1 (stereo not drawn) | 6
COc1ccc(-c2ccc3c(c2)[C@H]2[C@H](CCN2C(=O)Nc2ccccc2OC)[C@H](CO)N3C)cc1 | -70
O=C(Nc1ccc(Cl)cc1)N1CCOC1c1cccs1 (stereo not drawn) | 18
O=C(Cn1ncc2c(N3CCCCCC3)ncnc21)NCc1ccc(F)cc1F | -93*
COc1ccc(-c2nc(C)c(CCNC(=O)c3cccc(C(F)(F)F)c3)s2)cc1 | i
CCCN1CCN(CCCNC(=O)C2=C(C)C(=O)OC23CCN(C(C)=O)CC3)CC1 | 9

O=C(NC1CCS(=O)(=O)C1)C1CCN(c2nccc(C(F)(F)F)n2)CC1 (stereo not drawn)
  Tg IFNy HTS = -4

Cc1cccc(-c2nc(Cn3nnc(-c4nc(-c5ccc(Cl)cc5)no4)c3C)c(C)o2)c1
  Tg IFNy HTS = 7

CN(C)CC1(O)CCCN(C(=O)Nc2ccc(-c3ccccc3)cc2)CC1 (stereo not drawn)
  Tg IFNy HTS = 10

COc1cccc(-c2cc(CN3Cc4ncccc4C3=O)no2)c1
  Tg IFNy HTS = 0

Cc1nc(C)c(CC(=O)N(C)C(C)c2ccccn2)s1 (stereo not drawn)
  Tg IFNy HTS = 7

COc1cc(CN(C)CC2CCN(C)C2)ccc1OC1CCCC1 (stereo not drawn)
  Tg IFNy HTS = -29

COc1ccccc1N1C(=O)C2CC(C)=C(C)CC2C1=O (stereo not drawn)
  Tg IFNy HTS = 8

CC12CCC(C(=O)NCc3ccc4c(c3)OCO4)(CC1=O)C2(C)C (stereo not drawn)
  Tg IFNy HTS = 12

Cc1cc(C)n(-c2ccc(N3CCC(C)CC3)nn2)n1
  Tg IFNy HTS = i

COCCn1c(C(=O)N2CCN(c3ccncc3)CC2)cc2c1c1ccccc1n2C(C)C
  Tg IFNy HTS = -56

CC(C)(C)c1cc(C(=O)NC2c3ccccc3Oc3ccccc32)cc(C(C)(C)C)c1
  Tg IFNy HTS = -50

COCC(=O)N1CCC2(CC1)CC(N(C)Cc1ccco1)CO2 (stereo not drawn)
  Tg IFNy HTS = -47

O=C(C1CCCCC1)N1CC2(C1)[C@H](c1ccccc1)[C@H](CO)N2CCC(F)(F)F
  Tg IFNy HTS = -16

Cc1ccc(-c2nnc(-c3nc(NCCCN4CCc5ccccc5C4)c4ccccc4n3)o2)cc1
  Tg IFNy HTS = -118*

CC(Cc1ccccn1)NC(=O)C12CC3CC(C1)CC(n1cncn1)(C3)C2 (stereo not drawn)
  Tg IFNy HTS = 12

O=C(Nc1ccc(F)c(Cl)c1)C1CCN(S(=O)(=O)c2ccc3[nH]c(=O)ccc3c2)CC1
  Tg IFNy HTS = 110

Clc1ccccc1CNCC1CCC(CNCc2ccccc2Cl)CC1 (stereo not drawn)
  Tg IFNy HTS = -31&-43

CC(NC(=O)Cn1cc(C(=O)C(=O)N2CCCC2)c2ccccc21)c1ccc2c(c1)OCCCO2 (stereo not drawn)
  Tg IFNy HTS = -2

O=C1NCCOCc2cn(nn2)CC[C@H]1Cc1ccc(F)cc1
  Tg IFNy HTS = -29

Cn1cc(-c2cnc(-c3cccnc3)nc2)cc1C(=O)NC(C)(C)C
  Tg IFNy HTS = 33

COCCN1C(=O)N(C2Cc3ccccc3C2)C(=O)C12CCN(Cc1sccc1C)CC2
  Tg IFNy HTS = 16

CC(C)NC(=O)NC1CCc2c(ccc(=O)n2CCn2cccn2)C1 (stereo not drawn)
  Tg IFNy HTS = 0

CCN1c2ccc(C)cc2C(=O)NC12CCN(C(=O)c1cc(OC)cc(OC)c1)CC2
  Tg IFNy HTS = 7

O=C(Nc1ccccc1)N1CCC[C@@]2(C(=O)NCC3CC3)CN(c3ncccn3)C[C@H]2C1
  Tg IFNy HTS = -20

Cc1ccccc1OC(C(=O)N1CCC2(CC1)CN(C)CCN2C)C(C)C (stereo not drawn)
  Tg IFNy HTS = -1

CO[C@H](CN(C)Cc1nccs1)[C@H](C)CN([C@H](C)CO)S(=O)(=O)c1ccc(F)cc1
  Tg IFNy HTS = -54

CCn1c(C2CCN(C(=O)c3ccc(-n4ccnc4)cc3)CC2)nn(C)c1=O
  Tg IFNy HTS = 0

CCOc1ccc(C(=O)Nc2ccc(-c3nc(Cn4cc(C)cn4)c(C)o3)cc2)cc1
  Tg IFNy HTS = -91*

O=C(NCc1nnc2n1CCCC2)c1cccc(C2CCNC2)c1 (stereo not drawn)
  Tg IFNy HTS = 5

CCCN1CCN(C)C2(CCN(C(=O)CCOC)CC2)C1
  Tg IFNy HTS = 5

CN1C2CCC1CC(OC(=O)c1c[nH]c3ccccc13)C2 (stereo not drawn)
  Tg IFNy HTS = 12

COc1cccc(CC(=O)N2CC[C@H]3CN(Cc4cccnc4)S(=O)(=O)[C@@H]3CC2)c1
  Tg IFNy HTS = -34

O=S(=O)(c1ccc(F)cc1)N(CCO)CC(O)Cn1c2ccccc2c2ccccc21 (stereo not drawn)
  Tg IFNy HTS = 8

O=C(CSc1nccc(=O)[nH]1)Nc1nnc(SCc2ccccc2)s1
  Tg IFNy HTS = 60

Clc1cccc(Cl)c1CSCc1csc2ccccc12
  Tg IFNy HTS = -46

High-throughput results from PubChem.
